Bioassay records deposited in PubChem BioAssay by several laboratories.
ALR inh: blocks human ALR sulfhydryl oxidase activity | purified ALR, DTT oxidation, H2O2 HRP-luminol luminescence | inhibition, % (test concentration not listed) | 290,000 compounds, 3.8% hits;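 active = mean and each replicate at 75% or more; inconclusive = only one of the two met; inactive = neither met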;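 note: stock transfer was 7.5 nL into about 7.5 µL; 0% = neutral wells and 100% = wells with inactivated enzyme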
Target sequence (P55789 whole entry, looked up): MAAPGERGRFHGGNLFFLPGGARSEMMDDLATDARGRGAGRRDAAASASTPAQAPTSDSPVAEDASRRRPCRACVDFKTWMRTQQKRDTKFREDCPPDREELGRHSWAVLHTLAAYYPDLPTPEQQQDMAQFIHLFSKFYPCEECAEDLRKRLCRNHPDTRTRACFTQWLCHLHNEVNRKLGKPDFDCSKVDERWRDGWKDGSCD
LANA-H2A inh: blocks KSHV LANA binding to histone H2A/H2B; Q9QR71; cell-free LANA-H2A/H2B peptide, fluorescence polarization; inhibition, % (test concentration not listed); 320,000 compounds, 0.6% hits; AID 2629; in the data active = inhibition mostly above about 10%, no sharp cut-off; inactive = mostly below about 6.7%;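 note: stock transfer was 7.5 nL into about 10 µL; 0% = median of vehicle wells and 100% = median of positive control wells; one replicate is shown; the record names a cut of 25% in any replicate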
Calb FLC: C. albicans growth modulation with fluconazole; C. albicans CaCi-2 (fluconazole-resistant clinical isolate) + fluconazole, Alamar Blue growth, 48 h; growth inhibition, % (test concentration not listed); 300,000 compounds, 0.57% hits;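 active = most replicates above 75%; inconclusive = exactly half above 75%; inactive = most below 75%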;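 note: all wells also contain fluconazole at 8 µg/ml as a sub-toxic cotreatment; 0% = median of DMSO wells and 100% = median of geldanamycin control wells; wells of about 8 µL received 7.5 nL stock; the first replicate is given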
RanGTP-Imp inh: disruptors of Ran-importin-beta complex formation – biochemical, FRET, CFP-Ran, YFP-importin-beta, homogeneous, primary screen; cell-free CFP-Ran/YFP-importin-beta FRET ratio; 300,000 compounds, 1.1% hits; inhibition, % (no concentration beside the values);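 active = most replicates above 15%; inconclusive = exactly half above 15%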;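 note: 0% = DMSO wells and 100% = Ran loaded with GDP instead of GTP; wells of about 40 µL received 100 nL stock; the first replicate is given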
HNF4A DNA FP: change in binding of human HNF4 alpha to DNA | AID 1224865 | activity change, % at 10 µM | P41235 | 360,000 compounds, 0.3% hits | HNF4a-FITC DNA binding, fluorescence polarization, 1 h; in the data active = activity change above about 30%, passing the limit was not always enough;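 note: controls were the assay level and a saturating level of protein; the project sought stronger binding though the title names inhibitors; some compounds called inactive have numbers as strong as hits; positive values seem to mean higher polarization but the record does not say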
Target sequence (P41235 whole entry, looked up): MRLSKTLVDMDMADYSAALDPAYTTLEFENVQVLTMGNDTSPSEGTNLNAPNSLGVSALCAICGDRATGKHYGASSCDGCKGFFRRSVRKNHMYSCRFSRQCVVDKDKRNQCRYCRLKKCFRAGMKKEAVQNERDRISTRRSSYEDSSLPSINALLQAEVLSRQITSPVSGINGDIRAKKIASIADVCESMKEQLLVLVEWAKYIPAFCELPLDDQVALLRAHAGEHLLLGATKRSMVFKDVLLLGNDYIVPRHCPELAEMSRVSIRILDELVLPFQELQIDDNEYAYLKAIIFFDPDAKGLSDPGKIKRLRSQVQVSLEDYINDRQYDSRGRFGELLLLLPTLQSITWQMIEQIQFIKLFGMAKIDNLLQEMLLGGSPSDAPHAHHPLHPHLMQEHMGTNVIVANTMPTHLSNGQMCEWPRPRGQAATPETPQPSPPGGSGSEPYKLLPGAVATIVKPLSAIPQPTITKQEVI
Vif A3G: inhibitors of Vif binding to APOBEC3G peptide, primary screen, biochemical, TR-FRET, GST-Vif 1-94, biotin-A3G peptide, dose response retest (AID 1117319); 260,000 compounds, 0.57% hits; inhibition, %, or IC50 in µM where a hit was titrated; TR-FRET GST-Vif / biotin-A3G peptide binding; higher % means a stronger effect; test concentration not given here; strong numbers were not always called active;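 active = above the screen mean plus three standard deviations and confirmed in dose response; inconclusive = results disagree or hit not tested in dose response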;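 note: Vif residues 1-94 fused to GST binding biotinylated APOBEC3G peptide 110-148; 0% = full assay without inhibitor and 100% = GST in place of GST-Vif; retest series ran down from 100 µM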
Beta2AR agonist: agonists of human beta-2 adrenergic receptor inducing internalization | Am2.2-beta2AR cells, FAP receptor internalization, flow cytometry; reference of the scale not given here | P07550 | 340,000 compounds, 0.43% hits | response, % (concentration not given with the values);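 active = response above a set limit, near 3 SD of response in nonfluorescent compounds, cut at about 42% in these data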;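 note: stock transfer was 100 nL into about 11 µL; a reference agonist was the positive control; negative values mostly stem from fluorescent compounds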
Target sequence (P07550 whole entry, looked up): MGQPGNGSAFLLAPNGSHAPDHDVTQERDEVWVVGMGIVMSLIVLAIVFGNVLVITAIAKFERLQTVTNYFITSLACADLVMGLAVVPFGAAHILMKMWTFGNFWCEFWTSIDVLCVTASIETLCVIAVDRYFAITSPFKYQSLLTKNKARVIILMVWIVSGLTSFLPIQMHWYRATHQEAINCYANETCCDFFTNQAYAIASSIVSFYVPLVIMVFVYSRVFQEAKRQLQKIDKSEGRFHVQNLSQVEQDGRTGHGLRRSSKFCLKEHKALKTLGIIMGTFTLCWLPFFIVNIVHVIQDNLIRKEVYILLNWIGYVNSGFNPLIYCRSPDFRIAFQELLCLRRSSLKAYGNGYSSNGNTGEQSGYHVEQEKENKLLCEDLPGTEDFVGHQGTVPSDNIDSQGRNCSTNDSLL
* = called active by the depositor; ? = inconclusive; . = no result given. No enrichment for hits; about 6.3% have a hit in one of these screens.

SMILES	ALR inh	LANA-H2A inh	Calb FLC	RanGTP-Imp inh	HNF4A DNA FP	Vif A3G	Beta2AR agonist
CC(C)CC(=O)NC(=S)Nc1cc(C(F)(F)F)ccc1N1CCOCC1	-4	6.8	-55	3.7	2.2	.	0
O=C(Nc1cccc([N+](=O)[O-])c1)C1C2/C=C\CCCCC21 (stereo not given)	-3	5.0	-5	-0.7	-0.8	3%	28
COc1cccc(C(=O)Nc2c3c(nn2-c2cccc(C)c2C)CS(=O)C3)c1OC (stereo not given)	-4	-2.6	-1	1.6	2.2	-12%	2
C#CCOCCOCCOCCNc1nc(N2CCN(C(=O)CCCCCCCCCCNC(=O)Cn3cc(C[C@@H](C)O)nn3)CC2)nc(N2CCN(C(=O)CCCCCCCCCCNC(=O)[C@@H]([C@H](C)CC)n3cc(CCCCCN)nn3)CC2)n1	-13	-0.5	.	.	8.3	.	95*
CCC(=O)Nc1cc2nn(-c3ccc(C)cc3)nc2cc1C	-3	-0.6	-10	-2.4	-4.2	-13%	6
COc1ccc(NS(=O)(=O)c2c(C)cc(C)cc2C)cn1	-14	3.4	20	-1.8	0.3	.	4
CCC(=O)n1nc(-c2cccnc2)nc1NCc1ccccc1	.	.	-4	1.5	2.4	-8%	-4
CCOc1ccc(NC(=O)CN(C)C(=O)C(C)Oc2ccc(Cl)cc2)cc1OCC (stereo not given)	.	.	.	.	0.9	4%	0
O=C(NCCO)C1CCN(S(=O)(=O)c2ccc(F)cc2)CC1	1	1.5	-14	1.3	2.5	7%	-1
COC(=O)c1cc(C(=O)Nn2cnnc2)cc([N+](=O)[O-])c1	-4	3.8	-4	?	2.0	.	-1
COc1cccc(N(CC(=O)NC(C)c2ccccc2)S(C)(=O)=O)c1 (stereo not given)	-5	0.3	-2	?	-1.3	-3%	-8
CC1CCCCN1C(=O)CSc1nc2c(c(=O)n(C)c(=O)n2C)n1C (stereo not given)	-1	-4.2	-3	-1.6	1.2	.	-6
CCOC(=O)c1ccc(NC(=O)NCc2ccc(OC)cc2)cc1	-4	3.3	-11	1.3	1.7	.	6
O=C(CSc1nnc(SCc2cccc3ccccc23)s1)c1ccc2c(c1)OCO2	-16	-4.6	7	.	6.7	-21%	-4
O=C(CSc1ccccn1)N/N=C/c1ccccc1[N+](=O)[O-]	-7	11	-11	-2.9	-1.2	.	-6
COc1cc(C(=O)OC2CCOC2=O)cc(Cl)c1OC (stereo not given)	.	3.3	1	2.2	0.2	7%	11
CCN(CC)C(=O)Oc1ccc2c(c1)O/C(=C\c1ccco1)C2=O	-4	-4.1	1	18*	4.2	13%	4
COc1ccccc1/C=C/C1(C(=O)NC2CCCC2)CC(=O)N1c1ccccc1 (stereo not given)	0	7.7	6	-0.9	2.3	3%	12
O=C(Nc1c(C(=O)N2CCCCC2)cnn1-c1ccccc1)c1ccccc1F	1	4.1	?	-4.4	2.4	.	5
CC1CCCC(C)N1C(=O)Cc1ccccc1 (stereo not given)	-4	1.6	-8	-0.9	3.7	1%	1
COc1ccc(/C=C/C(=O)NC(=S)NNC(=O)c2cccs2)cc1	7	0.0	0	-1.6	2.5	3%	8
Cc1ccc2oc(C(=O)N3CCC(O)(c4ccccc4)CC3)c(C)c2c1	-8	6.6	3	-0.4	3.2	2%	-3
COC(=O)C1(C)NC(c2ccco2)C2C(=O)N(c3ccc(F)cc3)C(=O)C21 (stereo not given)	.	2.6	-3	1.8	-1.9	3%	-2
CCC1(C)CN=C(c2ccccc2)NC1 (stereo not given)	.	.	.	.	0.2	2%	9
Cc1ccc(-n2cnc3sc(C)c(C)c3c2=O)cc1	-2	-5.5	3	0.2	-2.4	-3%	-3

(more compounds)
SMILES	ALR inh	LANA-H2A inh	Calb FLC	RanGTP-Imp inh	HNF4A DNA FP	Vif A3G	Beta2AR agonist
CCOc1ccc2oc(C(=O)OCC(=O)N3CCCC(C)C3)c(C)c2c1 (stereo not given)	-2	-1.3	.	.	-2.0	-8%	2
CC(C)Cn1c(N)c(C(=O)COC(=O)c2ccccc2Cl)c(=O)n(C)c1=O	.	-12	-8	?	1.4	14%	10
CC(=O)OC(C(=O)NC1CCCCC1)c1cccc(C)c1 (stereo not given)	.	-1.5	-6	4.1	1.4	-2%	5
O=C(N/N=C/c1ccc(OC(=O)c2ccccc2)cc1)c1cccnc1	-13	0.7	58	-5.2	-1.4	.	7
COc1ccc(NC(=O)c2cccc3c2C(=O)N(CC2CCCO2)C3)cc1OC (stereo not given)	-9	-2.9	-4	0.4	0.7	.	3
C=CCNC(=O)/C(C#N)=C/c1c(N2CCN(c3ccc(OC)cc3)CC2)nc2c(C)cccn2c1=O	3	2.8	7	?	0.9	-1%	-7
COc1ccc(CNC(=O)CN(c2ccc(OC)c(Cl)c2)S(=O)(=O)c2ccc(C)cc2)cc1	-3	-1.4	6	-6.8	0.4	.	1
COc1cccc(CNC(=O)C2CC(=O)N(C3CCCCC3)C2)c1 (stereo not given)	0	-3.5	-5	0.0	1.3	.	-1
O=C(Cc1ccccc1)NNC(=S)Nc1ccccc1	30	0.5	18	3.1	-0.8	8%	4
O=C(CSCc1cnn(-c2ccccc2)c1-n1cccc1)N1CCN(Cc2ccccc2)CC1	-20	-11	17	-1.4	1.7	3%	-2
O=C(Nc1cccc(-n2cnnn2)c1)c1ccoc1COc1ccc(Cl)cc1	2	-10	-3	-0.2	0.0	.	3
O=C(Nc1c(Cl)cc(Cl)cc1C(=O)NCc1cccnc1)c1ccc(Cl)cc1Cl	-44	-1.5	.	.	-0.6	2%	-7
Cc1ccc(C)c(-n2c(Cc3cc(=O)[nH]c(=O)[nH]3)nnc2SCC(=O)NCC2CCCO2)c1 (stereo not given)	8	4.0	.	.	-4.9	-4%	-4
COc1ccc(NS(=O)(=O)c2cccc(C(=O)NNC(=O)c3ccc(=O)[nH]c3)c2)cc1	9	-2.2	.	.	-0.4	-5%	-5
O=c1[nH]c(N/N=C/c2ccc(O)cc2)nc2ccccc12	95*	8.2	-7	-0.5	-0.3	.	-17
CN(Cc1ccccc1)C(=O)c1ccc(NC(=O)C2=CSCCO2)cc1	-3	-2.3	11	9.7	0.1	.	-5
Cc1nnc(NC(=O)CSc2nccn2Cc2ccc(F)cc2)s1	-16	0.9	2	5.1	1.5	.	1
CC1CCN(CCCCOc2ccc(Br)cc2)CC1	-7	-0.9	8	-7.3	4.6	0%	2
CCCCNc1cc(C)nc(NCc2ccccc2)n1	-57	1.9	-4	-0.1	-1.6	-7%	32
CC1(C)C[C@H]2C3=CCC4[C@@]5(C)CC[C@H](O)[C@](C)(CO)C5CC[C@@]4(C)[C@]3(C)C[C@H]3O[C@@H]1[C@H](O)[C@]32CO (stereo not given in full)	2	1.5	.	.	-0.6	.	-2
COC(=O)c1cc(OC)c(OC)cc1NC(=O)CSCc1c(C)noc1C	-5	5.0	.	.	0.9	.	-3
CNc1ncnc2c1ncn2[C@@H]1O[C@H](CO)[C@@H](O)[C@H]1O	-1	-2.2	.	.	0.0	.	11
CSc1ncccc1C(=O)NNc1cc(Cl)ccc1Cl	-23	-5.5	-1	1.5	-0.2	-5%	-2
COc1ccccc1-n1c(C)cc(/C=C2/C(=N)N3C(=NC2=O)SN=C3S(C)(=O)=O)c1C	15	1.7	25	-2.3	4.5	26%	0
CC1(C)CC(=O)c2cnc(NCC3CCCO3)nc2C1 (stereo not given)	-9	-13	8	1.5	-2.6	5%	-12

Next part
SMILES	ALR inh	LANA-H2A inh	Calb FLC	RanGTP-Imp inh	HNF4A DNA FP	Vif A3G	Beta2AR agonist
COC(=O)c1ccccc1NC(=O)c1cnn2c(C)cc(C)nc12	-8	-0.8	18	-1.7	-1.1	-3%	4
Cc1cccc(NC(=S)N(CCN(C)C)C(C)c2ccco2)c1 (stereo not given)	-5	-2.0	-8	2.8	0.5	.	2
COc1cc(NC(C)C(=O)N2CC(C)OC(C)C2)cc(OC)c1 (stereo not given)	.	.	-1	?	-0.5	4%	19
COc1ccc(/C=C(\C#N)C(=O)NCCCn2ccnc2)cc1	0	2.7	2	2.2	0.4	-2%	2
CCCOc1ccccc1-n1sc2c(c1=S)-c1cc(OC)cc3c1N(C(=O)C3=O)C2(C)C	-15	-0.4	-12	-0.3	-3.5	7%	9
CC(C)OC(=O)CSc1nnc(C2CCCCC2)n1N	-9	-0.9	-15	0.7	8.5	-5%	0
COc1ccccc1OCCNC(=O)CC(NC(C)=O)c1ccccc1 (stereo not given)	-2	-3.3	14	0.8	1.3	.	5
CCn1c(C(=O)O)c(S(=O)(=O)c2ccc(Cl)cc2)c2ccccc21	-12	-1.3	4	-2.9	4.7	-2%	3
CC(C)(C)c1ccc(C(CC(=O)O)NS(=O)(=O)Cc2ccccc2)cc1 (stereo not given)	4	6.5	-5	1.2	-2.8	-8%	7
Cc1cc2cc(NC(=O)c3ccco3)ccc2[nH]1	10	-4.8	-13	-3.0	3.1	12%	0
COc1cc2c(cc1OC)C(c1cc(OC)c(OC)c(OC)c1)C1(O)C(=O)OCC1(O)C2 (stereo not given)	.	.	.	.	0.5	-4%	2
O=C(c1ccco1)N1CCN(S(=O)(=O)c2ccc(Br)s2)CC1	5	-2.2	22	5.4	12	7%	3
O=C(Nc1nc2ccccc2s1)C1CCN(S(=O)(=O)c2cc([N+](=O)[O-])ccc2Cl)CC1	.	-3.0	12	-4.2	-20	?	23
O=S(=O)(c1ccc2c(c1)OCCO2)N1CCN(c2cccc(Cl)c2)CC1	.	-0.6	36	1.5	0.7	30%	-11
O=C(O)/C=C/C(=O)N(CC1CCCO1)C1CC(=O)N(c2c(Cl)cccc2Cl)C1=O (stereo not given)	2	-1.4	-5	-2.1	-2.3	10%	-7
CC(/C=C/c1ccco1)=N\NC(=O)c1cccc(Cl)c1	2	-0.2	-1	4.4	1.3	-2%	12
CCSc1ccc([C@@H]2[C@@H]3C(=O)N(CC)C(=O)[C@@H]3[C@]3(C(=O)OC)CCCCN23)cc1	-2	-0.6	-1	-0.7	-1.2	.	-15
COCCNC(=O)CN(C(=O)Cn1nnc2ccccc21)c1cc(C)cc(C)c1	-5	-4.1	9	0.6	-0.7	3%	-3
COc1ccc(F)cc1S(=O)(=O)Nc1cc2c3c(c1)CCN3C(=O)CC2	-53	0.6	5	1.5	-1.2	5%	3
Cc1cc(OCC(=O)N(Cc2cccs2)C2CCS(=O)(=O)C2)ccc1Cl (stereo not given)	-16	3.1	11	3.7	-0.2	.	-1
CC(C)(C)NC(=O)C(c1ccc(O)cc1)N(Cc1ccccc1)C(=O)CCC(=O)Nc1nccs1 (stereo not given)	3	3.0	-2	3.0	1.6	3%	-2
C/C(Cl)=C/Cn1c(=O)c2c(nc(Br)n2Cc2ccccc2)n(C)c1=O	4	1.3	-31	3.2	-4.6	21%	-11
S=c1nc(-c2ccc(Cl)cc2)[nH][nH]1	.	4.8	-18	3.4	3.2	23%	1
O=C(Oc1ccc(C(=S)N2CCOCC2)cc1)c1cccc(Cl)c1	2	-1.7	21	-2.3	0.5	.	-7
COc1ccc(CNC(=O)CCCOc2cc(=O)n(C)c3ccccc23)cc1	-13	-2.2	-25	0.5	-0.8	6%	-3
O=C(Nc1ccc(Br)cc1)C1C2C=CC3(O2)C1C(=O)N(CCN1CCCCC1)C3C(=O)NC1CCCCC1 (stereo not given)	1	-0.8	-10	0.7	2.7	.	-5
O=C(OCC1CCC=CO1)C1CCC=CO1 (stereo not given)	.	.	.	.	1.9	7%	0
COc1ccc(C(=O)COC(=O)c2ccc(NC(=O)c3ccccc3)cc2)cc1	-12	5.6	0	5.6	0.7	3%	8
